Screening results from PubChem BioAssay.
2A Renilla = Primary qHTS Assay for Foot and Mouth Disease Virus Antivirals against NCGC Sytravon and CBC Compound Libraries: Renilla Luciferase Signal. HEK cells with a luciferase reporter of 2A StopGo recoding. Potency, µM (doses to about 57.5 µM), without a hit: at the highest dose signal change, negative = less light. 120,000 compounds, 0.32% hits. AID 1745857, 2022; active means well fitted falling curve with a large enough effect; inconclusive means small, poorly fitted or top-dose-only effect; inactive means no such curve, though single readings can be large or run the other way; further: nearly all actives have a fitted effect of over 55% in size; overnight with compound
StopGo FLuc = Primary qHTS Assay for Foot and Mouth Disease Virus Antivirals against NCGC Sytravon and CBC Compound Libraries: Firefly Luciferase Signal. HEK cells with a luciferase reporter of 2A StopGo recoding. Potency, µM (highest dose often 57.5 µM), without a hit: at the top dose signal change, negative = less light. 120,000 compounds, 0.23% hits. AID 1745856, 2022; active = well fitted falling curve with a large enough effect; inconclusive = small, poorly fitted or top-dose-only effect; inactive = no such curve, though single readings can be large or run the other way; further: nearly all actives have a fitted effect of over 60% in size; overnight with compound
An asterisk follows results filed as active; ? = inconclusive; & = joins results of further samples; [ ] = another dose, or the depositor's remark. On the % scale 0 is the no-effect control and ±100 the full control effect; potency means the concentration at half of the fitted maximal effect.

Molecule | 2A Renilla | StopGo FLuc
CC(C)NC(=O)CSc1nnc(-c2c[nH]c3ccccc23)o1 | 29% | 90%[activator]
CC(CNc1nc2ccccc2c2nc(-c3ccccc3)nn12)c1ccccc1 (stereo not given) | -9% | 6%
O=C(CSc1n[nH]c(=O)c2cc(-c3ccco3)nn12)Nc1ccc(F)cc1 | -1% | 77%[activator]
O=C1c2[nH]nc(-c3ccccc3O)c2C(c2ccccc2F)N1Cc1ccncc1 (stereo not given) | 96%[activator] | 9%
Cc1nc(S(=O)(=O)N2CCN(c3ccc(Cl)cc3)CC2)cn1C | -8% | -11%
COc1cccc(OC)c1C(=O)NCCc1csc(-c2ccccn2)n1 | -11% | 0%
O=C(COc1ccc2ccc(=O)oc2c1)NCCc1ccccc1F | 6% | 20%
NC(=O)c1ccc(C(=O)NC2CCCc3ccccc32)cc1 (stereo not given) | 0% | 3%
CN(C(=O)CCc1ncc(-c2ccccc2F)o1)C1CCS(=O)(=O)C1 (stereo not given) | 2% | 84%[activator]
CN(Cc1ccc(Cl)c(Cl)c1)C(=O)CN1CCN(c2oc(-c3ccco3)nc2C#N)CC1 | 122%[activator] | 1%
CC1CCc2c(sc(NC(=O)C3c4ccccc4Oc4ccccc43)c2C#N)C1 (stereo not given) | -9% | -8%
CC(=O)Cn1nnc2sc(-c3ccccc3)cc2c1=O | -18% | 56%[activator]
O=C(NC1CC1)c1cc(-c2ccc(Cl)cc2)nc2ccccc12 | 4% | 6%
C=CCOc1ccc2c(=O)c(Oc3cccc(C)c3)coc2c1 | 7% | 142%[activator]
CC(C)c1ccc(Nc2nc3ccc(C(=O)c4ccccc4)cc3n3cnnc23)cc1 | -13% | -17%
N#Cc1cccc(NC(=O)NCCc2ccccn2)c1 | 0% | 0%
O=C(CN1CCC(c2ccccc2)CC1)c1c[nH]c2ccccc12 | -6% | 12%
CCN(CC)C(=O)c1cc(-c2ccc(Cl)cc2)nc2ccccc12 | 0% | -2%
CCN(C(=O)CSc1nnc(-c2cccs2)n1N)C1CCCCC1 | 10% | -1%
O=C(Nc1ccccc1-c1ccccc1)c1cc(F)cc(F)c1 | 33% | 0%
Cc1cccc(-n2ccnc2SCC(=O)Nc2ccc3c(c2)OCO3)c1 | 29%&31% | 0%&45%
N#CC1(NC(=O)CSc2ccc(C(F)(F)F)cn2)CCCCCC1 | 30% | 8%
CN(C)[C@@H]1C(=O)C(C(=O)NCN2CCCC2)=C(O)[C@@]2(O)C(=O)C3=C(O)c4c(O)cccc4[C@@](C)(O)C3C[C@@H]12 (stereo not given in full) | -3% | 7%[11.5 µM]
Cc1nc2cc(NC(=O)C(C)Oc3ccccc3)ccc2o1 (stereo not given) | 2% | 127%[activator]
O=C(CSc1nnnn1-c1ccc(O)cc1)NC(Cc1ccccc1)c1ccccc1 (stereo not given) | -14% | -18%
O=C(O)CC/C(=C/c1cccc(Oc2ccc(Cl)cc2)c1)c1nc2ccccc2s1 | -11% | -8%
O=C(CC12CC3CC(CC(C3)C1)C2)NCc1ccccc1Cl | 9% | -5%
CCOC(=O)c1cnc2ccccc2c1N1CCC(C(=O)OC)CC1 | -6% | -4%
CCOC(=O)C(C)Oc1cc2oc(=O)cc(C)c2cc1Cl (stereo not given) | 45%[activator] | 53%[activator]
CC(C)Oc1ccc(CNC(=O)c2ccc(NC(=O)N3CC(C)Sc4ccccc43)cc2)cc1 (stereo not given) | -1% | 45%[activator]
CC(C)OCCCNc1ncnc2sc3c(c12)CCCC3 | ? | ?
CCn1cc2nc(SCC(=O)Nc3ccc(OC)c(OC)c3)n(Cc3ccc(Cl)cc3)c(=O)c2n1 | 3% | ?
Cc1cccc(Cn2c(SCc3ccc(C(=O)NC4CCCCC4)cc3)nc3ccncc32)c1 | 14% | 5%
CC(C)=CC1C(C(=O)NCC(C)(C)C(N)=O)C1(C)C (stereo not given) | 5% | -4%
OCc1cccnc1Cl | 2% | -11%
CCCc1noc(Cn2cnc3ccc(Br)cc3c2=O)n1 | -15% | 8%
CCc1ccccc1NC(=O)Cn1c(=O)n(CC(=O)NCCc2ccccc2)c(=O)c2ccccc21 | -13% | -16%
CCOC(=O)C(C)NC(=O)CNC(=O)c1cc(C)cc(C)c1 (stereo not given) | -4% | 3%
CCONC(=O)C(NC(=O)c1ccc(Cl)cc1Cl)C(C)C (stereo not given) | 0% | -6%
CCCNC(=O)COc1nc2ccccc2nc1N1CCOCC1 | 0% | 6%
CCCc1ccc(OC(=O)CSc2nnc(-c3cccs3)o2)cc1 | -20% | -7%
COC(=O)c1ccc2c(=O)n(CCCCCC(=O)N3CCN(c4cc(Cl)ccc4C)CC3)c(=O)[nH]c2c1 | -1% | 24%
Cc1ccc(NC(=O)CCn2cccn2)c(C)c1 | 2% | 16%
O=C(NCCc1csc(-c2cccc(F)c2)n1)c1ccc(Br)o1 | ? | ?
Nc1nc(Nc2cccc(F)c2)sc1C(=O)c1ccccc1Cl | 4% | 76%[activator]
CC(C)NC(=O)c1ccc2c(=O)n(CCc3ccccc3)c(SCC#N)nc2c1 | -17% | -16%
O=C(Cn1ncc2ccccc2c1=O)Nc1cccc(F)c1 | 1% | 0%
O=C(CN1CCN(C(=O)CCc2ncc(-c3ccccc3F)o2)CC1)Nc1cccc(F)c1 | -16% | 28%
CCOC(=O)c1cc(-c2ccccc2)n(CC(=O)NCc2ccccc2OC)c1C | 18% | -15%
OCCOc1ccc(CNc2nc(-c3ccccc3)nc3ccccc23)cc1 | 5% | 24%
Cn1c(=O)c2sccc2n2c(CCCC(=O)Nc3ccc(Oc4ccc(Cl)cc4)cc3)nnc12 | -5% | -12%
Cc1ccc(Cl)cc1N1CCN(C(=O)C2CCN(S(=O)(=O)Cc3ccccc3)CC2)CC1 | -2% | -4%
CNC(=O)c1cc(NC(=O)CCn2nc(-c3ccc(Cl)cc3)c3ccccc3c2=O)ccc1OC | 9% | 22%
CCCN1C2=C(C(=O)CC(C)(C)C2)C(c2cccc(O)c2)C2=C1CC(C)(C)CC2=O | 39%[activator] | -1%
CCn1cc(C(=O)NCCCOC(C)C)c(=O)c2cc(S(=O)(=O)N3CCc4ccccc4C3)ccc21 | ? | ?
COc1ccc(OC)c(CNC(=O)Cn2nc(C)c3nn(-c4ccc(Cl)cc4)c(C)c3c2=O)c1 | -9% | -11%
CC(C)(C)c1ccc(OCc2nnc(-c3ccccc3)o2)cc1 | 3% | 157%[activator]
Cc1ccc2c(CSc3nncn3C)cc(=O)oc2c1C | -9% | 19%
CC1CCN(C(=O)CSc2nc3ccccc3nc2Cc2ccccc2)CC1 | 127%[activator] | -6%
CN(Cc1ccc(OC(F)F)cc1)C(=O)Cn1nc(C(=O)O)c2ccccc2c1=O | 0% | 2%

Further records:
Molecule | 2A Renilla | StopGo FLuc
CC(C)Oc1ccc(CNC(=O)c2ccc3c(c2)N(Cc2ccc(F)cc2)CCS3)cc1 | -4% | 0%
COc1ccc2c(Sc3ccccc3)c(C(=O)NCCc3ccc(Cl)cc3)[nH]c2c1 | 36%[activator] | -3%
O=C(NC1CCCCC1)c1ccc(Cl)nc1 | 10% | 47%[activator]
O=C(Cn1cnc2c(oc3ccccc32)c1=O)Nc1ccc(F)cc1F | -8% | 8%
CCN(CC)S(=O)(=O)N(C)Cc1ccc2c(c1)OCCO2 | 16% | 27%
CC1CCc2sc(C(=O)N/N=C3/CCCCc4ccccc43)cc2C1 (stereo not given) | 9% | 0%
FC(F)(F)c1ccc(N/N=C/c2cccc(Br)c2)nc1 | 2% | 0%
Cc1ccc(Cc2c(C)nn(-c3nc(C)c(C(=O)N4CCCCC4C)s3)c2C)cc1 (stereo not given) | -6% | -4%
CC(Nc1ccc(N2CCCC2=O)cc1)c1nc(C(C)(C)C)no1 (stereo not given) | 15% | 9%
COc1cccc(CNC(=O)CSc2nc3ccccc3nc2Cc2ccc(C)cc2)c1OC | -6% | -2%
Cc1ccc(NC(=O)N2CCC(CN3CCCCC3)CC2)c(Cl)c1 | ? | -10%
Cn1c(SCC(=O)NCC(F)(F)F)nnc1-c1cc2c(s1)CCC(C(C)(C)C)C2 (stereo not given) | 3% | 57%[activator]

Reformatted: results already given
The line under a structure holds: 2A Renilla	StopGo FLuc
CC(Nc1ccc(N2CCCC2=O)cc1)c1nc(C(C)(C)C)no1 (stereo not given)
→ 15%	9%
COc1cccc(CNC(=O)CSc2nc3ccccc3nc2Cc2ccc(C)cc2)c1OC
→ -6%	-2%
Cc1ccc(NC(=O)N2CCC(CN3CCCCC3)CC2)c(Cl)c1
→ ?	-10%

Back to the main list with the 7 entries that preceded the break.
Molecule | 2A Renilla | StopGo FLuc
CC1CCc2sc(C(=O)N/N=C3/CCCCc4ccccc43)cc2C1 (stereo not given) | 9% | 0%
FC(F)(F)c1ccc(N/N=C/c2cccc(Br)c2)nc1 | 2% | 0%
Cc1ccc(Cc2c(C)nn(-c3nc(C)c(C(=O)N4CCCCC4C)s3)c2C)cc1 (stereo not given) | -6% | -4%
CC(Nc1ccc(N2CCCC2=O)cc1)c1nc(C(C)(C)C)no1 (stereo not given) | 15% | 9%
COc1cccc(CNC(=O)CSc2nc3ccccc3nc2Cc2ccc(C)cc2)c1OC | -6% | -2%
Cc1ccc(NC(=O)N2CCC(CN3CCCCC3)CC2)c(Cl)c1 | ? | -10%
Cn1c(SCC(=O)NCC(F)(F)F)nnc1-c1cc2c(s1)CCC(C(C)(C)C)C2 (stereo not given) | 3% | 57%[activator]
COCCNC(=O)CCn1c(=O)c2cc(OC)c(OC)cc2n(CC(=O)Nc2ccccc2C)c1=O | -19% | 7%
CN(C)c1ccc(NC(=O)CSC2=Nc3ccccc3C3=NC(CC(=O)NCc4ccc5c(c4)OCO5)C(=O)N23)cc1 (stereo not given) | -2% | 169%[activator]
CCC(CC)C(=O)Nc1ccccc1C(=O)OCc1cc(=O)n2nc(C3CCCCC3)sc2n1 | -3% | -16%
CCc1ccc(-c2nc(-c3nc(-c4ccccc4)cs3)sc2C)cc1 | 2% | 10%
O=S(=O)(NCCc1nnc2ccc(SCc3ccccc3)nn12)c1ccccc1 | 0% | -9%
COc1cccc(Oc2nc3c(c(=O)n(Cc4ccccc4F)c(=O)n3C)n2C)c1 | -7% | -11%
O=C(NCCSCc1ccsc1)C1CCC1 | 4% | 21%
COc1ccc(-n2nnnc2SCc2cc(=O)oc3cc(C)ccc23)cc1 | 112%[activator] | 15%
Cn1c(C(=O)Nc2cccc3ncccc23)c(Cl)c2ccccc21 | 4% | 11%
Cn1c(=O)c2c(nc(Oc3ccc(F)cc3)n2Cc2ccc(F)cc2)n(C)c1=O | -1%&-2% | -1%&-1%
CCn1cc2c(n1)-c1c(oc(C(=O)Nc3ccc(Br)cc3F)c1C)CC2 | -13% | 22%
Cc1ccccc1NC(=O)CSc1nc2ccc(NC(=O)COc3ccccc3F)cc2s1 | ? | 0%
Cn1c(=O)c2c(ncn2CC(=O)Nc2ccccc2C(=O)NCCc2ccccc2)n(C)c1=O | 2% | 121%[activator]
COc1ccc(CNC(=O)C2CCN(Cc3nc(-c4ccc(Cl)cc4)oc3C)CC2)cc1 | -15% | -9%
CC(=O)c1cc(-c2ccccc2)n(CC(=O)NCc2ccccc2C)c1C | -11% | 11%
CC1OC(OC2C(O)CC(OC3C(O)CC(OC4CCC5(C)C(CC[C@@H]6[C@@H]5CCC5(C)C(C7=CC(=O)OC7)C(O)CC65O)C4)OC3C)OC2C)CC(O)C1O (stereo not given in full) | ? | ?
CC(=O)C(Sc1nc(-c2ccccc2Cl)nc2c1c(=O)n(C)c(=O)n2C)C(=O)N(C)C (stereo not given) | 2% | -9%
COc1ccccc1CNC(=O)CCc1ncc(-c2ccccc2F)o1 | -4% | 39%[activator]
O=c1c2nnn(-c3ccc(F)cc3)c2ncn1Cc1nc(-c2ccccc2)no1 | -12% | -4%
COc1ccccc1N(CCC#N)C(=O)CSc1ncnc2sc(C)c(C)c12 | ? | ?
COc1ccc(C2Sc3ccccc3NC3=C2C(=O)c2ccccc23)c(OC)c1OC (stereo not given) | -8% | 6%
CCOc1ccccc1CNC(=O)c1oc2ccc3c(c2c1C)C(=O)CC(C)(C)O3 | 10% | 95%[activator]
CC(=O)N1CCN(C(=O)c2ccc3c(ccn3Cc3ccccc3)c2)CC1 | ? | -26%
O=C(O)c1ccnc2ccccc12 | 14% | 22%
Cc1cn(C)c(CC(=O)NCc2cccc(Cl)c2)c1C(=O)O | -10% | -1%
O=C(Cc1ccsc1)Nc1cccc(Cl)c1 | 80%[activator] | 106%[activator]
CCc1ccc(N(Cc2cccs2)C(=O)c2cccs2)cc1 | 25% | 22%
Cc1cc2oc(=O)cc(CSc3nncn3C(C)C)c2cc1C(C)C | 5% | 0%
CCCCn1c(N)c(N(C)C(=O)Cn2c(C)nc3ccccc32)c(=O)[nH]c1=O | 2% | -3%
O=C(COc1ccccc1)Nc1c(Cl)ccc2nsnc12 | -2% | 12%
COC(=O)c1cccc(-c2ccc(C=O)o2)c1 | -12% | 0%
O=c1cc(-c2cccs2)oc2ccccc12 | 34%[activator] | 104%[activator]
Nc1cc(C(=O)OCc2cccc(F)c2)ccc1Cl | 10% | 0%
CCOC(=O)c1ccc(NC(C)=O)o1 | 7% | 0%

An excerpt; count on the stated rates, not on these rows.
